gsp antagonist – qHTS for Antagonists of gsp, the Etiologic Mutation Responsible for Fibrous Dysplasia/McCune-Albright Syndrome: qHTS | gsp-mutant cells, cAMP HTRF, 30 min; control for the full effect not named in the record | actives 0.4% (n = 340,000) | Potency, µM (series often up to 76.9 µM), for the others: at the top dose activity change, negative = inhibition, most hits filed as inhibitors; active = falling curve of any shape with a large fitted effect; inconclusive = falling curve, mostly with a smaller effect; inactive = flat or rising curve; cell line not stated here;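 note: intracellular cAMP measured with PDE inhibitor Ro 20-1724 present during compound exposure; potency is the fitted concentration of half-maximal effect; % is set by controls: 0 for no effect and ±100 for the full control effect; nearly all actives have a fitted effect of over 65% in size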
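Measurement of cellular cAMP by homogeneous time-resolved fluorescence following a 30 min compound exposure at 37C. The PDE inhibitor […] was present throughout; the assay buffer was DPBS with 0.05% BSA and 0.005% Tween 20.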
ClpP mod – qHTS Assay for Activators of ClpP; Potency, µM (doses to about 57.5 µM), inactives show at the top dose activity change, negative = active; AID 651965, 2013; actives 1.9% (n = 340,000); purified B. subtilis ClpP, FRET peptide cleavage, 20 min; active = well fitted falling curve with a large enough effect; inconclusive = small, poorly fitted or top-dose-only effect; inactive = no such curve, though single readings can be large or run the other way; note: potency is the fitted concentration of half-maximal effect; the source files actives as falling curves though it sought activators and does not explain the sign; nearly all actives have a fitted effect of over 65% in size; many hits overshoot -100%
Target sequence (P80244 whole entry, looked up): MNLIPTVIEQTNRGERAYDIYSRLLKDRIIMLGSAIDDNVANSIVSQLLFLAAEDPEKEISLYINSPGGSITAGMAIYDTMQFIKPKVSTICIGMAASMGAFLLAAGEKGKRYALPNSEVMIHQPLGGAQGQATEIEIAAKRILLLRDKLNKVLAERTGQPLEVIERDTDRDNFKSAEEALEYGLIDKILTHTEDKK
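ClpP 10 microg/mL final, pH 8 Tris/KCl buffer with BSA, glycerol, Tween-20; compound pinned in; FRET-FV substrate; RT 20 min; Ex320/Em430; ΔFRET vs ADEP 5.8 microM, DMSO, no enzyme.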
Menin MLL FP FL – qHTS Assay for Inhibitors Targeting the Menin-MLL Interaction in MLL Related Leukemias: Competition With Fluorescein Labeled MLL-derived Peptide; Fluorescence polarization, fluorescein-MLL peptide displacement from menin; FP activity change, % at 61.4 µM; 290,000 tested, under 10 active; inconclusive = falling polarisation curve, or a change in total fluorescence; inactive = total fluorescence flat and polarisation flat or rising; no compound was filed as active; the % refers to the polarisation; negative = inhibition;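 note: % of control where 0% means no effect; inhibitors lower the polarisation; unlabelled MLL peptide was the positive control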
PINK1 expr mod – A Quantitative High throughput Screen to Identify Chemical Modulators of PINK1 Expression; actives 0.2% (n = 410,000); PINK1 immunofluorescence, high-content cytometry, 24 h; AID 624263, 2012; Potency, µM (titrated, usually from 76.6 µM), inactives show at the top dose activation (PINK1 increase), usual class: activators; active = well fitted activation curve with a large enough effect; inconclusive = small, poorly fitted or top-dose-only effect; inactive = flat fitted curve, though single readings scatter; cell line not stated here;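 note: potency is the fitted concentration of half-maximal effect; % of control where 0% means no effect; nearly all actives have a fitted effect of over 65% in size; a mitochondrial uncoupler was the plate control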
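PINK1 protein level read as immunofluorescence by microplate cytometer in a fixed, stained stable cell line after 24 h exposure to five compound concentrations, with CCCP as control.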
gsp agonist – qHTS for Agonist of gsp, the Etiologic Mutation Responsible for Fibrous Dysplasia/McCune-Albright Syndrome: qHTS. Potency, µM (doses to about 76.9 µM), for inactives: top-dose activation (cAMP increase), most hits filed as activators. gsp mutant cells, cAMP HTRF, 30 min; control for the full effect not named in the record. AID 624287, 2012. actives 0.13% (n = 340,000); active = well fitted activation curve with a large enough effect; inconclusive = small, poorly fitted or top-dose-only effect, or another doubt; inactive = no such curve, though single readings can be large or run the other way; cell line not stated here;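 note: phosphodiesterase inhibitor Ro 20-1724 added with compounds to block cAMP breakdown; potency is the fitted concentration of half-maximal effect; nearly all actives have a fitted effect of over 60% in size; about a fifth of the inactives were tested at one dose only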
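Cells in DMEM/10% FBS with G418 were pretreated with compounds in DMSO plus […] (300 uM stock) for 30 min at 37C. cAMP was measured by HTRF (cAMP-d2 plus anti-cAMP antibody-K) after 30 min at room temperature.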
D2 agonist – Beta-Arrestin HTS for Positive Allosteric Modulators of the Human D2 Dopamine Receptor: Agonists | D(2) dopamine receptor (Homo sapiens), P14416 | activation, % (no concentration beside the values) | DiscoveRx PathHunter D2 beta-arrestin, luminescence, 90 min; 100% = 57 uM dopamine signal | actives 0.084% (n = 360,000); in the data active = activation above about 40%; inconclusive = about 15% to 40%; inactive = below about 15%; note: compound concentration not given in the record; the text of the record calls up to 30% inactive
Target sequence (P14416 whole entry, looked up): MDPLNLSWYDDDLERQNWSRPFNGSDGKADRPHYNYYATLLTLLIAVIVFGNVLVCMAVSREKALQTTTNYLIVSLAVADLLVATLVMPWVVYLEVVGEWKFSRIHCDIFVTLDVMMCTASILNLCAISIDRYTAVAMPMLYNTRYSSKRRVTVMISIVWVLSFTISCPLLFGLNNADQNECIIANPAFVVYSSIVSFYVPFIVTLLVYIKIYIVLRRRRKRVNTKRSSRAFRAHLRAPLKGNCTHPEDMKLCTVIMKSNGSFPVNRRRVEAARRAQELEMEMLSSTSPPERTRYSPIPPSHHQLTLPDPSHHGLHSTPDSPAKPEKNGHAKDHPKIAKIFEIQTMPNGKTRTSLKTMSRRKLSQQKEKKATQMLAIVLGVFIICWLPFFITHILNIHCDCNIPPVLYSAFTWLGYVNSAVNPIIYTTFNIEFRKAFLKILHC
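DiscoveRx PathHunter D2 beta-arrestin cells (2,100/well) attached overnight, then compound-stimulated 90 min at 37 C in HBSS/10 mM HEPES/0.1% Tween-20 buffer; beta-galactosidase complementation read by luminescence after 1 h at ambient temperature. Dopamine 57 uM final (EC100) as control.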
Sfp inh – qHTS Assay for Inhibitors of Bacillus subtilis Sfp phosphopantetheinyl transferase (PPTase) | Potency, µM, for inactives: max response, negative = inhibition, actives largely listed as inhibitors | 4'-phosphopantetheinyl transferase ffp (Bacillus subtilis), Q9F4F7 | actives 3.5% (n = 310,000) | AID 1490, 2009 | Biochemical Sfp PPTase activity, qHTS; active = well fitted inhibition curve with a large enough effect; inconclusive = small, poorly fitted or top-dose-only effect, or another doubt; inactive = no such curve, though single readings can be large or run the other way;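 note: the enzyme is Sfp with the accession as filed and its product quenches rhodamine fluorescence; potency is the fitted concentration of half-maximal effect; 0% = enzyme reaction without inhibitor and -100% = no enzyme wells; top concentration of the series not given in the record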
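Buffer: 50 mM Hepes-Na pH 7.6, 10 mM MgCl2, 0.01% Nonidet P-40, 0.01% BSA. Enzyme 15 nM, pre-exposed to compound 15 min; substrates then added and fluorescence change tracked over 30 min.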
An asterisk follows results filed as active; ? = inconclusive; / = no result given; [ ] = another dose, or the depositor's remark.

SMILES | gsp antagonist | ClpP mod | Menin MLL FP FL | PINK1 expr mod | gsp agonist | D2 agonist | Sfp inh
CC1Cc2ccccc2N1C(=O)C1CCN(S(=O)(=O)c2cccs2)CC1 (stereo unspecified) | -10% | 0.6% | 5.2 | / | -12% | -0.9 | 1%
O=C(CN(Cc1ccccc1)S(=O)(=O)c1ccccc1)N/N=C/c1ccc([N+](=O)[O-])cc1 | -10% | -0.5% | -0.5 | -1.2% | -16% | 6.4 | 12%
CCOc1ccc(OCCN2C(=O)NC(Cc3c[nH]c4ccccc34)C2=O)cc1 (stereo unspecified) | -28% | 2.0% | -0.5 | -1.1% | 16% | -1.2 | 14%
COc1ccc(NC(=O)c2cc3cc(OC)ccc3oc2=O)cc1 | 8% | 0.5% | / | 25µM* | 7% | -1.3 | /
CCCCN(C)CCCNC(=O)c1cc(=O)[nH]c2ccc(S(=O)(=O)N3CCCCC3C)cc12 (stereo unspecified) | 7% | -8.9% | 2.2 | -1.0% | 31% | 1.9 | 6%
COc1ccc(N2CCN(C(=O)c3ccc(Cl)c(S(=O)(=O)N4CCOCC4)c3)CC2)cc1 | -3% | 1.0% | / | 2.4% | ? | -0.5 | /
COc1cc(C)ccc1OCC(=O)OCC(=O)NCC1CCCCC1 | 8% | -1.7% | / | 2.1% | -18% | -0.4 | /
COc1ccc2c(c1)C(C)CC(C)(C)N2C(=O)Nc1ccccc1 (stereo unspecified) | 2% | 3.6% | 2.4 | 1.3% | -5%[15.4 µM] | 1.1 | 8%
C[C@H]1CCC[C@]2(O[C@H](CCO)C[C@@H](O)[C@@H]2O)O1 | 4% | 0.9% | / | 1.7% | 17% | -3.0 | /
O=C1C(Cl)=C(NCC2CCCO2)C(=O)N1C1CCCCC1 (stereo unspecified) | 6% | 0.6% | -1.7 | -1.3% | 1% | 0.1 | 40µM*
COc1ccc(CCNC(=O)CSc2ccc3ccccc3c2)cc1OC | -1% | 1.3% | 3.0 | 0.0% | -29% | -5.1 | -28%
O=C(c1sc2ccccc2c1Cl)N1CCN(c2ccccc2F)CC1 | 3% | -1.4% | -2.3 | -1.3% | 25% | 1.7 | -15%
COc1ccc(C(=S)N2CCCCC2)cc1Br | 14% | / | 0.6 | 1.4% | -6%[15.4 µM] | -3.7 | 20%
CC(C)(C)c1ccc(Cn2nnc3c(=O)[nH]c(C4CCCN(C(=O)c5cccs5)C4)nc32)cc1 (stereo unspecified) | -31% | / | 1.0 | -3.1% | -18%[15.4 µM] | -1.0 | -21%
Cc1cnc(CNc2cc(-c3ccc(C(=O)N(C)C)cc3)ncn2)cn1 | / | / | -4.6 | 0.5% | / | / | -13%
Cc1ccc(C(=O)c2c3ccc([N+](=O)[O-])cc3[n+]([O-])n2CCCC(N)=O)cc1 | -20% | 1.3% | / | -0.8% | 0% | ? | /
O=C(/C=C/c1cccnc1)c1ccc(O)cc1 | 1% | / | 3.6 | 3.4% | 7% | -0.3 | 18%
CS(=O)(=O)N(Cc1ccccc1Cl)c1ccc(C(=O)NCc2ccccn2)cc1 | 3% | 0.4% | 2.0 | 0.6% | -4% | -1.7 | 15%
Cc1ccc(-c2noc(-c3c(C)noc3C)n2)cc1 | -6% | -2.0% | 3.0 | 0.5% | 8% | -4.8 | 2%
COc1ccc2c(C)cc(SCC#N)nc2c1 | -9% | -12% | 2.2 | 1.6%[38.3 µM] | 7% | 1.2 | 0%
CN(CC(=O)Nc1ccc(F)c(F)c1)S(=O)(=O)c1cccs1 | 0% | / | 1.0 | -2.1% | -25% | -2.5 | 13%
CCN(CC)c1ccc2c(-c3ccc(S(=O)(=O)O)cc3S(=O)(=O)[O-])c3ccc(=[N+](CC)CC)cc-3oc2c1 | 14% | -0.2% | ? | 1.4% | 60%[15.4 µM] | -8.9 | 89µM*
CC(=O)Nc1ccc(C(=O)N(C2=NC(C)CS2)c2ccc(Cl)cc2)cc1 (stereo unspecified) | 1% | -1.3% | / | 2.1% | 7%[15.4 µM] | -5.5 | 3%
CCOC(=O)c1c(C)n(C)c2ccc(O)c(CN3CCC(C)CC3)c12 | -8% | -8.9% | 0.1 | -1.1% | -23% | -2.3 | -3%
CC(=O)Nc1ccc(S(=O)(=O)C(C#N)c2nc3ccccc3nc2NCCO)cc1 (stereo unspecified) | 6% | 3.8% | ? | 2.0% | 26% | 6.6 | 12%
COc1ccc(S(=O)(=O)N(C)C[C@H]2OCc3cnnn3CCCC(=O)N([C@H](C)CO)C[C@@H]2C)cc1 | / | -0.5% | / | 1.9% | -2% | -1.4 | /
CCc1ccc(Nc2nnc(SC(C)C(=O)NC3CC3)s2)cc1 (stereo unspecified) | -2% | ? | / | 1.6% | -15%[15.4 µM] | -1.8 | /
O=S(=O)(c1cccc(C(F)(F)F)c1)c1ccc(O)cn1 | 8% | -0.1% | / | 1.3% | 0%[15.4 µM] | -8.0 | /
CCC(=O)Nc1ccc(C(=O)CSc2nc(N)cc(N)n2)cc1 | 8% | -1.5% | 1.8 | 2.9% | -29% | -1.5 | -25%
CCOc1ccc(-n2c(=O)[nH]cc(C(=O)N3CCc4ccccc43)c2=O)cc1 | 5% | -0.3% | -3.8 | -0.5% | 4% | -1.9 | 12%
CSc1nnc(C)c(/C=C/NOCc2cccc(F)c2)n1 | 0% | / | 8.4 | 1.4% | 6% | -8.7 | -9%
O=C(NCC(c1ccco1)N1CCN(c2ccc(F)cc2)CC1)c1cccs1 (stereo unspecified) | -6% | / | / | 0.9% | -2%[15.4 µM] | -1.7 | /
O=C(CCCOc1ccccc1)Nc1cccc(S(=O)(=O)N2CCOCC2)c1 | -6% | 0.9% | / | 0.0% | -5%[15.4 µM] | 0.2 | /
CCN(CC)Cc1c(C(=O)N/N=C/c2ccc(OCc3ccccc3C)cc2)nnn1-c1nonc1N | -16% | -4.7% | -6.7 | 1.0% | ? | 3.0 | 0%
C[C@H](NC(=O)c1ncn2c1C(=O)NC[C@@H]2C)C(=O)OC(C)(C)C | / | 1.3% | / | 1.5% | 0% | -2.3 | /
O=C1CCC(c2ccccc2)=NN1Cc1c(F)cccc1Cl | -6% | / | 0.8 | 4.3% | 2%[15.4 µM] | 1.9 | 5%
COc1ccc(CN(Cc2cc3cc4c(cc3[nH]c2=O)OCO4)C(=O)NC2CCCCC2)cc1 | -4% | 22µM* | -2.0 | 1.0% | 1% | -3.6 | 1%
CCOc1ccc2c(c1)c1nnc(SCC(=O)NC3CC3)nc1n2C | -11% | / | 0.5 | 17% | -18% | 1.3 | 21%
COc1cccc(CN(CC(=O)NC2CCCCC2)C(=O)c2csnn2)c1 | 2% | / | 0.6 | 0.9% | 19% | 4.2 | -10%
O=C(Nc1ccccc1)/C(=C/c1ccc(F)cc1)NC(=O)c1ccco1 | 9% | / | 6.3 | 1.2% | -9%[15.4 µM] | -2.2 | 10%
Cc1ccc(N(C)C(=O)c2cc(S(=O)(=O)N3CCCC3)cn2C)cc1 | 3% | -3.0% | -0.8 | 0.3% | ? | -5.4 | 14%
COc1ccc(C(=O)n2cnc3ccccc32)cc1[N+](=O)[O-] | 3% | -2.2% | -1.0 | -0.8% | 4% | -0.3 | -3%
O=C(c1cc(-c2ccccc2Cl)on1)N1CCN(C(=O)c2ccco2)CC1 | -2% | -0.3% | 6.8 | -0.5% | -25% | -2.1 | 12%
Nc1ccccc1C(=O)N(Cc1ccccc1)Cc1ccccc1 | -3% | -9.3% | 7.1 | -1.8% | 0% | -0.7 | 27%
CCOC(=O)N1CCC(NC(=O)Cn2cc3c(n2)CCCC3)CC1 | 6% | 0.0% | 1.7 | 0.6% | 22% | -5.6 | 9%
COc1ccccc1CNC(=O)CCCOc1cc(=O)n(C)c2ccccc12 | 6% | -10% | -0.7 | 1.1% | -37%[inhibitor] | -3.8 | 11%
Cc1ccc(S(=O)(=O)N2C[C@H]3n4c(=O)ccc(=O)n4C[C@H](OC(=O)NCc4ccccc4F)[C@@]3(O)C2)cc1 | / | 0.4% | / | -2.2% | 0% | -3.9 | /
Cc1c(C(=O)NCC2CCCO2)oc2ccc(S(=O)(=O)N3CCCC3)cc12 (stereo unspecified) | -8% | 0.3% | -0.9 | -0.6% | -11% | 0.2 | 3%
CCC1CCCCN1C(=O)c1ccc(OC2CCN(C(=O)COC)CC2)cc1 (stereo unspecified) | 6% | -1.3% | -6.3 | 1.1% | 19%[15.4 µM] | -2.2 | 12%
O=C1[C@H](Cc2ccccc2)NCC=CC[C@H](c2ccco2)N1Cc1ccccc1 | -4% | -3.5% | / | -1.3% | / | 1.3 | /

Marked active in PINK1 expr mod (from the list above):
SMILES,gsp antagonist,Menin MLL FP FL,PINK1 expr mod,gsp agonist,D2 agonist,Sfp inh
COc1ccc(NC(=O)c2cc3cc(OC)ccc3oc2=O)cc1,8%,/,25µM*,7%,-1.3,/

Next part
SMILES | gsp antagonist | ClpP mod | Menin MLL FP FL | PINK1 expr mod | gsp agonist | D2 agonist | Sfp inh
CCc1nnc(NC(=O)CSc2nnc(C3CC3)n2C)s1 | 1% | 2.3% | / | 1.0% | 7% | 1.8 | 4%
CC(C)C(C)NC(=O)Cn1cnc2c(oc3ccccc32)c1=O (stereo unspecified) | 5% | / | 0.4 | 1.4% | 22%[15.4 µM] | 1.5 | 9%
Cc1ccsc1C(=O)OCC(=O)NCc1ccc2c(c1)OCO2 | -2% | -0.3% | -1.3 | 0.5% | 5% | -1.2 | -22%
Nc1cc(Oc2ccc(F)cc2F)cc([N+](=O)[O-])c1 | 3% | / | 2.9 | 1.7% | -5% | -3.3 | 15%

Source: PubChem (National Center for Advancing Translational Sciences (NCATS))
